# Sa helicase inh: S. aureus DNA helicase inhibition; inhibition, %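 (tested at about 80 µM)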; 0.05% of 120,000 active; purified S. aureus helicase, fluorescence unwinding assay; about half of the hits fall short of the stated cut;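 active means both duplicates at 50% or more, or one of them with a favoured structure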;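 further: 0% = mean of negative control wells and 100% = mean of positive control wells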
# MgrA DNA FP: alters Staphylococcus aureus MgrA binding to DNA. fluorescence polarization. inhibition, %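 (about 10 µg/mL by stock and volumes)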. 0.13% of 84,000 active. AID 602314;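 active means above 50% in either of two replicates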;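 further: 0% = protein plus DNA without compound and 100% = DNA alone without protein; higher means less MgrA bound to DNA so lower polarization; one replicate is shown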
# * marks the source's active call; other numbers are inactive results; / = not tested or not shown.
SMILES,Sa helicase inh,MgrA DNA FP
CCn1c(SCc2nc3ccccc3[nH]2)nnc1-c1ccccc1,8.0,/
CN(C)C(CNC(=O)C1CCCN1C(=O)c1cccs1)c1ccccc1 (stereo unspecified),5.0,/
O=C1CCC(C(=O)N[C@@H](Cc2ccccc2)c2nc3ccccc3[nH]2)=NN1,-6.0,/
O=C(NN1C(=O)C2C3C=CC(C3)C2C1=O)C(O)c1ccccc1 (stereo unspecified),13.0,0.6
O=C(O)c1ccc(CN2C(=O)SC(Nc3ccccc3)C2=O)cc1 (stereo unspecified),-2.0,/
C=C(C)CC(NC(C)c1ccccc1)c1ccco1 (stereo unspecified),3.0,0.7
CCCCn1nnc(NC(=O)CSc2ccc(Cl)cc2)n1,-15.0,1.1
Cc1cc(C)c2nc3s/c(=C\c4ccc(-c5ccccc5[N+](=O)[O-])o4)c(=O)n3c2c1,/,7.6
O=C1CCCc2cc(S(=O)(=O)NC3CCCCCC3)ccc2N1,5.0,/
N#CCCN1CCNCC1,6.0,0.5
O=C(OCc1cccs1)C1CCCCC1,-7.0,-1.1
FC(F)(F)c1ccccc1CNc1ccc(-c2nc3ncccc3o2)cc1,3.0,1.8

# 5 compounds already listed, arranged by SMILES length, falling:
SMILES,Sa helicase inh,MgrA DNA FP
O=C1CCC(C(=O)N[C@@H](Cc2ccccc2)c2nc3ccccc3[nH]2)=NN1,-6.0,/
O=C(O)c1ccc(CN2C(=O)SC(Nc3ccccc3)C2=O)cc1 (stereo unspecified),-2.0,/
C=C(C)CC(NC(C)c1ccccc1)c1ccco1 (stereo unspecified),3.0,0.7
O=C(OCc1cccs1)C1CCCCC1,-7.0,-1.1
N#CCCN1CCNCC1,6.0,0.5

# (next part)
SMILES,Sa helicase inh,MgrA DNA FP
CCC1CSC(=Nc2ccc(Cl)c(Cl)c2)N1C(=O)CCc1c(C)[nH]c(=O)c(C#N)c1C (stereo unspecified),7.0,/
Fc1ccc(CNCCN2CCOCC2)cc1,3.0,-1.5
CCCCOC(=O)OC1CCS(=O)(=O)C1 (stereo unspecified),1.0,-0.7
S=C(Nc1ccccc1Cl)N1CCOC1c1c[nH]c2ccccc12 (stereo unspecified),/,-0.7
CC1c2[nH]c3ccccc3c2CCN1C(=S)Nc1ccccc1 (stereo unspecified),8.0,2.7
CC(C)(C)NC(=O)CCc1nc2ccccc2s1,-4.0,/
CCN1CCN(C(=O)c2cccc(F)c2F)CC1,3.0,-0.8
O=C(c1ccccc1C(F)(F)F)N1CCN(c2ccccc2F)CC1,-11.0,/
CCCCC(=O)N1CCN(c2cc(C)c(C(=O)CC)cc2F)CC1,-7.0,/
COc1ccc(CCNC(=O)CSc2ccc(C)cc2)cc1OC,-12.0,-1.5
COc1ccc(Cn2nnnc2CN2CCN(c3cc(Cl)ccc3C)CC2)cc1,10.0,-0.6
Cc1ccc2[nH]c(=O)c(C(c3nnnn3C3CCCC3)N(C)C3CCCCC3)cc2c1 (stereo unspecified),1.0,7.4
Cc1ccccc1-n1cnnc1SCC(=O)NC1(C#N)CCCC1,-6.0,/
Cc1nnc2ccc(N3CCN(C(=O)c4ccccc4)CC3)nn12,7.0,/
CC(Oc1ccc(OCc2ccccc2)cc1)C(=O)O (stereo unspecified),/,-2.4
O=C(c1cccc(S(=O)(=O)N2CCCC2)c1)N(CC1CCCO1)c1nc2ccccc2s1 (stereo unspecified),-1.0,/
CCc1ccccc1Nc1nc(N)nc(CSCC(=O)c2cc(C)n(C)c2C)n1,-16.0,/
c1ccc2c(c1)N=C(NNC1=Nc3ccccc3SC1)CS2,16.0,/
CC(C)(C)C1CCC2(CC1)NC(CO)(CO)CO2 (stereo unspecified),-11.0,/
Clc1ccc(CN2CCN(c3cccc4[nH]ccc34)CC2)c(Cl)c1,/,-0.9
COc1ccc(-c2noc(CCC(=O)NCCN3CCN(c4ccccc4F)CC3)n2)cc1,16.0,-0.4
O=C(c1ccc(-c2ccccc2F)cc1)N1CCOCC1,/,-1.5
CC(=O)Oc1cc(OC(C)=O)cc(OC(C)=O)c1,17.0,/
COc1cc(/C=C2/N=C(c3ccccc3)NC2=O)cc(OC)c1OC,/,1.9
Cn1c(C(F)(F)F)nc2c(=O)oc3ccccc3c21,13.0,0.1
CCN1C(=O)c2ccccc2S(=O)c2ccc(C(=O)NCc3ccccn3)cc21 (stereo unspecified),3.0,/
S=C(NC1=NCCS1)Nc1ccccc1,1.0,1.2
COc1ccc(Oc2ccc(N)cn2)cc1,/,-1.4
CC1(C)C(=O)N(CC(O)CNc2ccccc2)C(=O)N1CN1C(=O)N(CC(O)CNc2ccccc2)C(=O)C1(C)C (stereo unspecified),-16.0,/
Cc1cc(C)n(CCCNC(=O)CSc2nnc3n2CCCCC3)n1,-8.0,/
O=[N+]([O-])c1ccccc1-n1cccc1,/,-0.7
COCC(C)n1c(COc2ccccc2F)nnc1SCC(=O)Nc1nc(C)cs1 (stereo unspecified),0.0,/
CN1CCc2c(sc(N)c2C(=O)O)C1,13.0,5.5
CCCOC(=O)c1c(NC(=O)OC)sc2c1CCCCC2,7.0,8.3
CC1=C(C(=O)OCCOc2ccccc2)C(c2ccc(OCc3ccccc3)cc2)NC(=O)N1C (stereo unspecified),/,-1.0
COCCNC(=O)c1cc2ccccc2o1,-11.0,-5.1
O=C(CSc1cc(C(F)(F)F)cc(C(F)(F)F)c1)Nc1ccccc1F,/,-1.3
Cc1ccc(C2CC(c3c(F)cccc3Cl)n3nc(N)nc3N2)cc1 (stereo unspecified),10.0,0.7
O=C1NC(=Nc2ccccc2Cl)S/C1=C/c1ccc([N+](=O)[O-])cc1,/,0.7
Cc1ccc(CSc2nnc(-c3ccc(C(F)(F)F)cn3)s2)cc1,/,0.3
Cc1sc2nc(C(C)OC(=O)c3ccc4c(c3)C(=O)N(Cc3ccco3)C4=O)[nH]c(=O)c2c1C (stereo unspecified),-2.0,/
COc1cc(OC)cc(C(=O)Nc2ccnn2C2CCCCC2)c1,5.0,/
CCOC(=O)c1ccccc1NC(=O)CSc1ncccn1,/,-2.8
Cc1sc2nc(SCC(=O)N(CCO)CCO)nc(N)c2c1C,-3.0,2.6
O=c1[nH]nc(Sc2ccc(C(F)(F)F)cn2)n1C1CCCCC1,/,0.3
CC(C)CCNS(=O)(=O)c1cccc2nsnc12,-7.0,/
CCOC(=O)N1CCC(N2Cc3cccc(C(=O)NC4CCN(Cc5ccccc5)CC4)c3C2=O)CC1,31.0,/
CSc1ccc(CCNC(=O)c2ccc3c(=O)n4c(nc3c2)CCCCC4)cc1,7.0,/
Cc1cccc(C(=O)Nc2nnc(/N=C/c3ccc(Br)s3)s2)c1,-48.0,/
CC1S/C(=N\Nc2ccc(Cl)cc2)NC1=O (stereo unspecified),-10.0,/
Nc1nnc2c([nH]c3ccccc32)c1-c1ccccc1,11.0,/
CCc1nn(CC(=O)N2CCc3ccccc32)c(=O)c2cccn12,34.0,/
COc1ccc(S(=O)(=O)N2CCCCCC2)cc1C(=O)OC(C)C(N)=O (stereo unspecified),-5.0,/
COc1cccc(OCc2ccccc2Cl)c1C#N,/,-1.5
Cc1nnc2c(N3CCOCC3)nc3ccccc3n12,8.0,/
Cc1nc2ccccc2n1CC(=O)N(c1ccccc1)C(C)C,-17.0,/
O=C(Nc1cccc(S(=O)(=O)c2cccc(NC(=O)C3CCCO3)c2)c1)C1CCCO1 (stereo unspecified),17.0,-1.3
N#CCCSc1ccccc1NC(=O)/C=C/C(=O)O,/,-0.3
CCOC(=O)c1c(C)[nH]c(C)c1C(=O)COC(=O)c1ccncc1,5.0,/
CSc1nc2ccc(S(=O)(=O)Nc3ccc4c(c3)COC4=O)cc2s1,11.0,-1.1
# Additional records follow.
SMILES,Sa helicase inh,MgrA DNA FP
COc1ccc(C2=NNC(=O)c3ccccc3C2)cc1,-3.0,-1.0
Cc1c(C(=O)c2ccc(F)cc2)oc2ccccc12,/,-0.8
O=C(CCN1CCN(Cc2ccccc2)CC1)Nc1ccc2c(c1)OCO2,-20.0,/
Cc1ccc(S(=O)(=O)NC(=O)NCC2CCN(S(=O)(=O)c3ccccc3)CC2)cc1,-14.0,/
CCn1c(=O)c(C(C)Nc2ccco2)c(O)c2ccccc21 (stereo unspecified),5.0,-0.8
C=CCSc1nc(N)c(C#N)c(-c2ccc(C)cc2)c1C#N,9.0,/
C(=N\Nc1nc(-c2ccc3c(c2)OCCO3)cs1)/c1ccc2c(c1)OCO2,1.0,/
COc1ccc(-c2c(C#N)c(N)nc3sc(C(=O)c4ccccc4)c(N)c23)cc1OC,/,3.8
O=C1O[C@@H](CO)[C@H](O)[C@@H](O)[C@@H]1O,/,3.3
FC(F)(F)C(Oc1nc(NC2CCCCC2)nc(N2CCOCC2)n1)C(F)(F)F,/,-0.9
CCn1c(SCC(=O)OC)nnc1-c1ccco1,9.0,-1.5
O=C1C2C3C=CC(C3)C2C(=O)N1Cc1ccccc1 (stereo unspecified),-39.0,18.1
N#CC(C#N)=C1NC2=C(Cc3ccccc32)C(c2cccs2)=C1C#N,20.0,/
COc1ccccc1N(C)S(=O)(=O)c1ccc(C(=O)Nc2ccccc2N2CCN(C)CC2)cc1,-11.0,/
COc1ccc(-c2nnn(-c3cccc(C(F)(F)F)c3)c2N)cc1OC,-14.0,/
COC(=O)c1ccccc1NC(=O)CC1(c2ccc(Cl)cc2)C(=O)c2ccccc2C1=O,4.0,-2.8
CCc1nnc(Cn2nnc3c(=O)[nH]c(C(=O)Nc4ccc(C)cc4)nc32)s1,14.0,-1.4
COC(=O)C1CCCN1C(=O)C12CC3CC(CC(C3)C1)C2 (stereo unspecified),-2.0,0.6
O=C(NC(NC1CCS(=O)(=O)C1)C(=O)c1ccc(Cl)cc1)c1ccco1 (stereo unspecified),1.0,-1.5
CCCc1cc(C(=O)N(C2CCCCC2)C2CCCCC2)no1,6.0,5.5
C/C=C/C(=O)OCc1cc(=O)oc2cc(NC(=O)OCC)ccc12,10.0,/
Nc1noc(-c2ccccc2)n1,1.0,-3.0
CC1CCCCN1C(=O)c1cc(-c2ccccc2)on1 (stereo unspecified),-1.0,-4.2
COc1ccc(S(=O)(=O)N(CC(=O)N2CCOCC2)Cc2ccccc2)cc1C,6.0,-2.1
CCCNC(=O)CCc1c(C)nc2c(c(C)nn2-c2ccc(C)cc2)c1C,5.0,/
CCn1c(SCc2nc(-c3ccc(Cl)cc3)no2)nnc1-c1ccco1,4.0,/
CCOC(=O)c1c(NC(=O)Cc2cccs2)sc(C(=O)Nc2cc(C(F)(F)F)ccc2Cl)c1C,/,-1.6
OCCC12CC3CC(CC(CO)(C3)C1)C2,-14.0,/
COc1cc(CC(=O)NN)c([N+](=O)[O-])cc1OC,/,1.6
Cc1cc(C)c2cc3c(cc2n1)CCN3CC(O)CO (stereo unspecified),-463.0,/
Cc1cc(C)c(C(N)=O)c(NCCc2ccccc2)n1,-7.0,-2.0
O=C(Cn1c(=O)oc2cc(S(=O)(=O)NCc3ccccc3)ccc21)N1CCCCCC1,-15.0,/
ONC(=Nc1ccccc1Cl)c1ccccc1Cl,-14.0,/
N#Cc1c(-c2ccccc2)cc(C2CC2)nc1SCC(=O)O,12.0,/
CC(=O)Nc1ccc(-c2cnc[nH]2)cc1,-2.0,-0.3
N#C/C(=C(/O)CN1CCN(Cc2ccccc2)CC1)c1nc2ccccc2c(=O)[nH]1,-12.0,/
O=C(Sc1cccc2ncccc12)c1ccccc1,2.0,12.0
O=C(OC1CCOC1=O)c1ccc2c(c1)S(=O)(=O)c1ccccc1C2=O (stereo unspecified),-5.0,/
c1ccc2c(Nc3ccc4c(c3)OCCO4)c3c(nc2c1)CCC3,8.0,/
Cc1cc(C(F)(F)F)cc(S(=O)(=O)CCOC(=O)c2cccc(Cl)c2)n1,/,-1.7
CCCN1C(=O)NC(CCC(=O)O)C1=O (stereo unspecified),7.0,-3.6
O=C(C1CCNCC1)N1CCCCC1,16.0,/
FC(F)(F)c1ccnc(NCCNC(=S)Nc2cccnc2)n1,/,-1.8
CC(=O)N1CCC(N(C(=O)c2ccc(F)cc2)c2ccc3c(c2)OCO3)CC1,4.0,-0.6
O=C(O)C1=NN(C2CCS(=O)(=O)C2)C(=O)CC1 (stereo unspecified),-3.0,-6.7
CCOC(=O)c1c(NC(=O)CSc2nc(N)cc(=O)[nH]2)sc2c1CCCCC2,-34.0,/
Cc1c2cnn(CC(=O)O)c(=O)c2c(C)n1Cc1ccccc1F,7.0,3.3
Cc1ccsc1-c1ncnn1-c1ccccc1,3.0,/

# Overlap with the part before: 3 entries; new compounds follow.
SMILES,Sa helicase inh,MgrA DNA FP
CCOC(=O)c1c(NC(=O)CSc2nc(N)cc(=O)[nH]2)sc2c1CCCCC2,-34.0,/
Cc1c2cnn(CC(=O)O)c(=O)c2c(C)n1Cc1ccccc1F,7.0,3.3
Cc1ccsc1-c1ncnn1-c1ccccc1,3.0,/
O=S1(=O)c2ccccc2S(=O)(=O)N1Cc1ccccc1Cl,/,1.6
O=C1CC(c2ccccc2)C(=O)N1c1ccc(F)cc1 (stereo unspecified),/,-2.5
CC1(C)Cc2c(sc3nc(CCCc4ccccc4)n(N)c(=O)c23)CO1,6.0,0.3
N#Cc1ccsc1NC(=O)c1ccc2ncsc2c1,-31.0,/
O=C(CSc1nc(N2CCCCC2)nc(N2CCCCC2)n1)Nc1ccccc1,9.0,9.6
O=C(O)C(C(=O)OCc1ccccc1)c1ccccc1 (stereo unspecified),/,-1.7
COc1ccc2[nH]c(C(=O)Nc3cccc(C)n3)cc2c1,/,2.1
O=C(Cn1nc(C(F)F)cc1C1CC1)N1CCCC1,0.0,-0.9
Cc1[nH]c2ccc(C(=O)OCC(=O)Nc3nnc(-c4ccccc4)o3)cc2c1C,-6.0,/
COC(=O)c1ccc2snnc2c1,/,-1.9
CN(C(=O)c1cc2c(n(-c3ccccc3)c1=O)CCCC2=O)c1ccc(O)cc1,41.0,/
O=C(c1ccc2c(c1)C(=O)N(Cc1ccco1)C2=O)N1CCN(c2ccccc2)CC1,15.0,/

# Some of the compounds tested; rates above refer to the full screens.
